# Screening data (PubChem BioAssay)
# Rango dissoc inh = prevents RanGTP from dissociating the Rango-importin beta complex; O95149+P62826; Biochemical FRET Rango-importin beta, RanGTP-induced dissociation; Potency, µM (series often up to 46.1 µM), inactives show at the top dose activity change, negative = inhibition; 340,000 compounds, 0.071% hits; AID 540253; active means falling FRET ratio curve, often poorly fitted, with flat reads before Ran was added; inconclusive means other falling curves, or compound fluorescence or quenching; inactive means flat or rising ratio curve;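 further: potency means the concentration at half of the fitted maximal effect; % of control where 0% means no effect; nearly all actives have a fitted effect of over 45% in size; -100% = wells without RanGTP and RCC1; the record marks most hits as doubtful in a second field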
#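 FRET read at 45 min, room temperature: inhibitors block the CFP/YFP signal rise when RanGTP (0.6 uM Ran, 2 mM GTP, 0.2 uM RCC1) frees Rango (0.1 uM) from importin beta (0.25 uM). Pre-read after 5 min compound exposure flags interference.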
# miR-21 reporter = miR-21 reporter, rising signal; Potency, µM (highest dose often 38.3 µM), for inactives: at the top dose reporter change, positive = more light; AID 2288; 340,000 tested, under 10 active; HeLa miR-21 FLuc reporter, luciferase, 48 h; active = well fitted rising curve with a large enough effect; inconclusive = small, poorly fitted or top-dose-only effect; inactive = no such curve, though single readings can be large or run the other way;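 further: % of control where 0% means no effect; miR-21 action dims this reporter so a rising signal means less miR-21 action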
#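 HeLa cells endogenously expressing miR-21, stably carrying CMV-driven firefly luciferase with a downstream miR-21 binding site, 2000 cells/well. Titrations up to approximately 40 uM, 48 hours; luciferase luminescence read.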
# Rango-impB inh = inhibitors of Rango-importin beta complex formation | Q14974 | Rango CFP/YFP FRET sensor + importin beta, 45 min | Potency, µM (doses to about 92.2 µM), inactives show top-dose inhibition of complex formation | 340,000 compounds, 0.031% hits | AID 540263; active = rising FRET ratio curve, often small or poorly fitted; inconclusive = mostly compound fluorescence or quenching in the first reads; inactive = flat curves in all reads;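 further: potency means the concentration at half of the fitted maximal effect; 0% = DMSO wells and 100% = buffer wells lacking importin beta; nearly all actives have a fitted effect of over 15% in size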
# Target sequence (Q14974 whole entry, looked up): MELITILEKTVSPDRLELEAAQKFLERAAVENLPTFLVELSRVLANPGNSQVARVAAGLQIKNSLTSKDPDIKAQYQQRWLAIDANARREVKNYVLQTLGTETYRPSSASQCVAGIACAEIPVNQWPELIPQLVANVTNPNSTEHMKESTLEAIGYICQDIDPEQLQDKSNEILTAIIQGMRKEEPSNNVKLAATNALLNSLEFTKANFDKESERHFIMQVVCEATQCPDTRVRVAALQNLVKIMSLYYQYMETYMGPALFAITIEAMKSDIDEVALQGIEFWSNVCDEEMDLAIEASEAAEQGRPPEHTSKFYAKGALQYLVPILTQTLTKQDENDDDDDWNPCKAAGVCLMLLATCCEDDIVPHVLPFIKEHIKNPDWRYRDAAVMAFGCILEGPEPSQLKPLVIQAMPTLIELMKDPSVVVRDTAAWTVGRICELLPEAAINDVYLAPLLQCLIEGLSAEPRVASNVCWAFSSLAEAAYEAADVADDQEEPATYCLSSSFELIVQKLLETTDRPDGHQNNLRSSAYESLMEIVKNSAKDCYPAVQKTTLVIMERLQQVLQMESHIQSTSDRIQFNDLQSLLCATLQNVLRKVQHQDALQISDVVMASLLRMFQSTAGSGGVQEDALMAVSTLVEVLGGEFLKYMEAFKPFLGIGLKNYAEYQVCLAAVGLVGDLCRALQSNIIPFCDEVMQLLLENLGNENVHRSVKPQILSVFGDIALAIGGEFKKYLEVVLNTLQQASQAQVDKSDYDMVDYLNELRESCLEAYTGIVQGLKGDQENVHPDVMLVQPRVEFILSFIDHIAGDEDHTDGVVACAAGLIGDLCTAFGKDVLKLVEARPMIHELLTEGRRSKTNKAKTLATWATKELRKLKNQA
#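 FRET biosensor Rango (snurportin 1 IBB between N-terminal EYFP and C-terminal Cerulean), 50 nM in PBS/1 mM DTT/0.02% Tween-20/0.1% BSA, preincubated 5 min RT with compound; 0.125 microM importin beta added, 45 min RT, CFP/YFP FRET ratio read.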
# GLA inh pH 4.5 = inhibitors of human alpha-galactosidase A at pH 4.5 | P06280 | purified enzyme, 4-MU-alpha-Gal fluorescence, pH 4.5 | activity change, negative = inhibition, % at 105 µM | 230,000 tested, under 10 active | AID 1467; inconclusive = small, poorly fitted or top-dose-only inhibition, or a rising curve; inactive = flat fitted curve, though single readings scatter; no compound was filed as active;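 further: 0% = full activity with enzyme and -100% = basal without enzyme; dose as in the result columns while the protocol names 77 µM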
# * hit, by the source's call; u = inconclusive; x = no result given.
SMILES,Rango dissoc inh,miR-21 reporter,Rango-impB inh,GLA inh pH 4.5
Cc1onc(-c2ccccc2Cl)c1C(=O)NCc1nc(-c2ccccc2)no1,-18.9%,1.9%,-1.8%,-21.2
CC1=CC(C)(C)NC(=S)N1c1ccc(C)cc1,7.2%,-5.3%,5.6%,1.7
COc1cccc(N(C(=O)c2ccco2)C(C(=O)NC2CCCC2)c2ccc(N3CCOCC3)cc2)c1 (configuration not stated),3.1%,2.4%,-1.3%,x
COc1ccc(CSc2nc(O)cc(=O)n2CC(C)C)cc1F,-8.1%,6.6%,-4.6%,x
CCOc1ccc(NC(=O)COC(=O)CCN2C(=O)C3CC=CCC3C2=O)cc1OCC (configuration not stated),2.6%,x,-0.6%,x
Clc1cccc(N/N=C/c2ccncc2)c1,16.3%,-46.4%,-3.3%,-4.9
O=[N+]([O-])c1ccc2oc(C(O)c3cccc(Cl)c3)cc2c1 (configuration not stated),-0.7%,-0.4%,5.5%,x
Cc1c(NS(=O)(=O)c2ccc(C(=O)NCc3ccc(F)cc3)cc2)c(=O)n(-c2ccccc2)n1C,24.5%,x,0.1%,x
CCOc1ccc(/C=N/NC(=S)NC2CC3CCC2C3)cc1 (configuration not stated),-7.1%,-4.5%,-0.2%,-7.9
CCOC(=O)N1CCC(NC(=O)CN2C(=O)CSc3nc(C)cc(C)c32)CC1,x,-0.2%,x,-0.1
CCCCN(CC)Cc1c(O)ccc2c(-c3ccccc3)cc(=O)oc12,u,-4.7%,u,-0.9
COc1ccc(C(C)C)cc1S(=O)(=O)NCc1ccccn1,-4.7%,-7.2%,2.0%,6.3
CC1(c2ccccc2)CC(c2ccccc2)=Nc2ccccc2N1 (configuration not stated),0.8%,-51.2%,-1.6%,-1.6
COc1ccc(C(=O)c2cnc(C(C)C)n2C)cc1,13.3%,-32.3%,-0.3%,-1.0
Cc1nnc(SCC(=O)Nc2ccccc2F)n1-c1ccc(F)cc1,-10.8%,-3.4%,0.8%,x

# Reformatted with values ahead of the structure: entries from further up
Rango dissoc inh | miR-21 reporter | Rango-impB inh | GLA inh pH 4.5 | mol
7.2% | -5.3% | 5.6% | 1.7 | CC1=CC(C)(C)NC(=S)N1c1ccc(C)cc1
3.1% | 2.4% | -1.3% | x | COc1cccc(N(C(=O)c2ccco2)C(C(=O)NC2CCCC2)c2ccc(N3CCOCC3)cc2)c1 (configuration not stated)
-8.1% | 6.6% | -4.6% | x | COc1ccc(CSc2nc(O)cc(=O)n2CC(C)C)cc1F

# Next section.
SMILES,Rango dissoc inh,miR-21 reporter,Rango-impB inh,GLA inh pH 4.5
Cc1cc(C(=O)Nc2cccc(C(=O)O)c2)oc1C,-15.0%,-24.6%,-0.3%,-5.3
COc1cccc(C2c3[nH]c4ccccc4c3C[C@H]3C(=O)N(C4CCN(Cc5ccccc5)CC4)CC(=O)N23)c1 (some centres not stated),0.6%,19.8%,u,x
Cc1cc(CN(C)C(=O)c2cc(COc3ccc(C)c(C)c3)on2)on1,-7.3%,-53.0%,-1.1%,x
CC(NC(=O)c1ccncc1)C(c1cccs1)N1CCOCC1 (configuration not stated),8.4%,-9.8%,-1.1%,-3.9
O=c1[nH]c(C2CCN(S(=O)(=O)c3ccccc3F)CC2)nc2c1nnn2Cc1ccc2c(c1)OCCO2,13.6%,-3.9%,4.3%,x
CCOc1ccccc1NC1c2ccccc2C(=O)N1c1cccnc1 (configuration not stated),1.3%,-3.9%,-3.3%,4.6
COC(=O)C(CC(=O)c1ccc(Br)cc1)n1cccn1 (configuration not stated),-17.0%,-3.0%,6.4%,x
CCOc1ccc(S(=O)(=O)NC(C)C(=O)NCc2cccnc2)cc1 (configuration not stated),-2.8%,-0.6%,u,x
COC(=O)C1(CCSC)NC(c2ccc(OC)cc2OC)C2C(=O)N(c3cccc(C(C)=O)c3)C(=O)C21 (configuration not stated),14.1%,-1.4%,1.4%,x
N#Cc1c(C(F)(F)F)cc(=O)n2c1[nH]c1ccccc12,u,16.4%,u,x
CCn1c(C)nc([N+](=O)[O-])c1Sc1ccc(F)cc1,-3.4%,19.5%,2.1%,4.8
Cc1nnc2sc(SCC(=O)Nc3cccc(Cl)c3)nn2c1=O,-8.9%,-2.9%,2.9%,-5.5
CC(C)COC(=O)N1CCN(S(=O)(=O)c2ccc3c(c2)CCC3)CC1,-2.3%,x,-1.5%,x
O=C(N/N=C/c1ccc([N+](=O)[O-])o1)c1ccncc1,-8.0%,28.8%,0.4%,-14.4
Cc1ccc(OCC(=O)N/N=C/c2cccn2C)cc1,0.3%,-8.3%,3.3%,-0.1
Cc1cc(NC(=O)CSCC(=O)Nc2cc(C(F)(F)F)ccc2N2CCCC2)no1,10.2%,x,-6.1%,x
CCc1nnc(NC(=O)C2CC(=O)N(c3ccc4c(c3)OCCO4)C2)s1 (configuration not stated),7.5%,1.2%,-2.0%,4.0
O=C(COC(=O)c1ccccc1)Nc1ccc(Cl)cn1,-7.7%,1.5%,1.0%,-1.7
Cc1cc(=O)oc2c3c(cc(OCC(=O)Nc4ccc(CCO)cc4)c12)OC(C)(C)CC3,1.5%,-2.6%,-4.2%,x
Cc1ccc(NC(=O)c2ccc(NCC3CCCO3)c([N+](=O)[O-])c2)cc1Cl (configuration not stated),3.3%,-5.5%,2.9%,x
CC(NC(=O)c1ccccc1F)C(=O)O (configuration not stated),16.2%,-1.8%,-1.0%,9.8
O=[N+]([O-])/C=C/c1cn(Cc2ccc(Cl)cc2)c2ccccc12,1.2%,-5.7%,-1.2%,0.5
CC(CC(=O)NC(C)c1ccc2c(c1)OCCO2)c1ccccc1 (configuration not stated),1.1%,-14.3%,u,13.9
COCCn1c(SCC(=O)N(C(C)C)C(C)C)nnc1-c1cc2ccccc2cc1O,-5.1%,3.1%,-1.5%,7.4
Cn1c(=O)c(-[n+]2ccccc2)c([O-])c2ccccc21,8.2%,0.5%,-0.5%,-5.9
O=C1CCC2(C(=O)O)Sc3ccccc3N12 (configuration not stated),10.5%,0.7%,5.8%,-2.3
CCC1CSC(Nc2ccc(C(=O)/C=C/c3ccc(Br)cc3)cc2)=N1 (configuration not stated),6.3%,13.8%,-4.2%,3.2
O=C1CCCCN1CCC(=O)N1CCCC(Nc2ccccc2)C1 (configuration not stated),-29.0%,0.1%,u,x
Cc1ccccc1C(=O)N1CCC2CC1c1cc(Cl)ccc12 (configuration not stated),9.3%,x,-0.4%,x
Cc1ccc(S(=O)(=O)N(CC(O)CN2C(=O)NC(C)(C)C2=O)c2ccccc2)cc1 (configuration not stated),1.6%,-0.1%,2.7%,-1.4
CC1(C)c2[nH]c3ccccc3c2C[C@@H]2C(=O)N(Cc3ccccc3Cl)C(=O)N21,11.6µM*,x,u,x
O=S(=O)(c1ccccc1)n1c(C(O)c2ccccn2)cc2ccccc21 (configuration not stated),-1.0%,-8.2%,1.5%,-8.8
Cc1onc(C(=O)Nc2ccc3c(c2)OCO3)c1[N+](=O)[O-],1.7%,-11.7%,0.0%,x
COc1ccc(OC)c(S(=O)(=O)n2cnc3ccccc32)c1,28.9%,0.5%,-0.6%,x
Cc1cccc(S(=O)(=O)C(C#N)c2nc3ccccc3nc2N2CC(C)OC(C)C2)c1 (configuration not stated),u,-10.1%,u,6.5
Fc1ccccc1NC(=S)N1CCN(C/C=C/c2ccccc2)CC1,-6.8%,-0.9%,3.3%,-2.9
COc1ccc(OC)c(NC(=O)c2ccc3c(c2)CCN3S(C)(=O)=O)c1,-0.6%,-6.8%,-0.3%,x
CCOc1ccccc1NC(=O)CSc1nnc2ccc(-c3cccnc3)nn12,-8.5%,-19.9%,1.1%,-3.6
COc1ccc(OC)c(CCNC(=O)CC2(CC3=NS(=O)(=O)c4ccccc4N3)CCCC2)c1,-0.9%,4.8%,-5.6%,x
CCOC(=O)C1(CC2CC2)CCN(Cc2cn(C)c3ccccc23)CC1,20.2%,15.4%,-0.7%,-8.4
CCOC(=O)c1c(CSc2cccs2)n(C)c2cc(Br)c(O)c(CN(C)C)c12,-4.7%,15.0%,2.7%,-1.7
CCOc1ccccc1N1CCN(Cc2ccco2)CC1,1.9%,-6.6%,-2.1%,7.4
Cc1ccc(N2C(=O)c3ccccc3C2=O)cc1,11.4%,-10.3%,0.0%,8.0
CCO[C@@H]1OC(C(=O)NCc2nc3ccccc3[nH]2)=C[C@H](c2csc3ccccc23)[C@H]1CCCO,-0.8%,8.3%,1.1%,-9.1
COc1cccc(N(C(=O)Cn2nnc(-c3cccs3)n2)C(C(=O)NC(C)C)c2ccc(C)o2)c1 (configuration not stated),-20.1%,-0.9%,2.8%,4.9
Cc1ccccc1-n1nnnc1SCC(=O)NC1CC1,19.3%,x,5.0%,x
CN(C)c1c(N)c(=O)oc2ccccc12,-2.4%,-6.8%,3.0%,-5.9
c1ccc2sc(N3CCCN(Cc4nc(-c5cnccn5)no4)CC3)nc2c1,6.1%,8.0%,2.4%,-1.2
CC(=O)Nc1ccc(OCCC[n+]2cccc(C(=O)[O-])c2)cc1,3.3%,-0.1%,-0.3%,1.1
CN(C)S(=O)(=O)c1ccc2c(c1)C(=O)c1cc(S(=O)(=O)N(C)C)ccc1CC2,-18.2%,x,u,x
Cc1ccc2cc(CN(Cc3ccco3)S(=O)(=O)c3c(C)ccc4nsnc34)c(=O)[nH]c2c1,-28.6%,0.5%,u,-19.0
C=CC[C@@H](CC(=O)OC(C)(C)C)C(=O)OC[C@@H]1CCCN1C(=O)[C@@H](CC=C)CC(=O)N[C@H](CO)Cc1ccccc1,0.6%,x,0.1%,x
OCCC1CN(CC#Cc2ccccc2)CCN1C1CCCC1 (configuration not stated),22.7%,-8.0%,3.6%,0.6
Fc1ccc(NC(=S)N2CCCC2)cc1Cl,0.0%,-2.1%,-3.4%,-4.7
CSc1nc2nc3c(c(=O)n2[nH]1)CN(Cc1ccccc1)CC3,10.4%,-2.1%,2.7%,3.2
CCS(=O)(=O)N1CCC(C(=O)Nc2cccc(F)c2)CC1,8.6%,-2.4%,-2.1%,x
CCN(CC)S(=O)(=O)c1ccc(N2CCOCC2)c(NC(=O)Cc2ccccc2F)c1,-9.5%,-10.0%,-2.4%,-3.3
Cc1ccc(NS(=O)(=O)c2cccs2)cc1S(=O)(=O)N1CCCCCC1,-3.4%,-0.5%,4.0%,-24.2
COc1cc(S(=O)(=O)NCC2CCCO2)ccc1Br (configuration not stated),-15.8%,-1.9%,3.3%,2.4
O=c1c2c3c(sc2nc2n1CCC2)CCCC3,-22.8%,-22.7%,-0.9%,0.1
# Carrying on:
SMILES,Rango dissoc inh,miR-21 reporter,Rango-impB inh,GLA inh pH 4.5
O=C(Nc1ccc(CN2CCOCC2)cc1)c1ccc(N2CCCC2)c([N+](=O)[O-])c1,-2.5%,-5.4%,0.5%,-4.9
O=S(=O)(NCc1ccccc1)c1ccccc1NCc1ccc(Cl)cc1,0.9%,x,5.8%,x
CCOc1ccc(OCC)c(NC(=O)CN(C)S(=O)(=O)c2cnc[nH]2)c1,0.3%,-0.6%,-0.6%,0.9
CCOC(=O)N1CCN(C(=O)c2ccc(Cl)c(S(=O)(=O)N3CCCC3)c2)CC1,-18.3%,-0.2%,4.4%,x
CC(C)CNC(=O)c1cc(-c2ccc(Br)cc2)on1,20.4%,-38.8%,1.4%,-4.3
CC(C)(C)n1nnnc1CN(Cc1cccnc1)Cc1ccccc1Cl,0.4%,0.3%,1.4%,-2.2
O=C(NCc1ccc(S(=O)(=O)NC2CCCCC2)s1)c1ccccc1,-1.4%,-0.3%,5.0%,-6.6
Cn1cc(S(=O)(=O)c2ccccc2)c(=O)c2cc(Cl)ccc21,2.7%,-3.5%,-0.4%,x
CCc1c(C)nc2nc(NC(C)=O)[nH]n2c1=O,-4.1%,-3.5%,-1.2%,11.6
Cc1ccc(S(=O)(=O)N2CCN(CC(=O)Nc3ccccc3C(=O)NC3CC3)CC2)cc1,0.0%,x,0.0%,x
O=C(c1ccco1)N1N=C(c2ccccc2)CC1c1ccc2nccnc2c1 (configuration not stated),5.6%,-32.6%,-0.5%,-2.3
Cc1cc(NC(=O)CCC(=O)N(CCC(C)C)C(C(=O)NCC2CCCO2)c2ccccc2C)no1 (configuration not stated),0.1%,1.8%,-1.3%,x
COc1ccc(N)c(C)c1,-6.1%,x,-0.6%,x

# Only part of the results is shown; count on the stated rates, not on these rows.
